Source: PubChem BioAssay
Mtb bLac sens = beta-lactam sensitization of Mtb H37Rv; 330,000 compounds, 0.27% hits; M. tuberculosis H37Rv growth with meropenem, percent inhibition; hits of this screen are not shown here; inhibition, % at 25 µM; AID 434955;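 active = about 74% or more and at least 40 points above the plate without the antibiotic, then above 30% in a dose series; inconclusive = first-round hits that could not be retested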;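 note: growth measured after seven days incubation then overnight dye step; 0% = bacteria only wells and 100% = bacteria with antibiotic; twin plates without the antibiotic show which effects depend on it; some results filed as inactive read as strong as hits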
RecA intein inh = Mtb RecA intein splicing inhibition. P9WHJ3. cell-free RecA intein splicing, fluorescence. inhibition, %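 (about 9 µM by stock and volumes)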. 290,000 compounds, 0.75% hits. AID 2221; in the data active = inhibition above about 30%; inconclusive = no clear call, values can overlap the other calls;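 note: 0% = vehicle wells and 100% = reference inhibitor control wells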
Target sequence (P9WHJ3 whole entry, looked up): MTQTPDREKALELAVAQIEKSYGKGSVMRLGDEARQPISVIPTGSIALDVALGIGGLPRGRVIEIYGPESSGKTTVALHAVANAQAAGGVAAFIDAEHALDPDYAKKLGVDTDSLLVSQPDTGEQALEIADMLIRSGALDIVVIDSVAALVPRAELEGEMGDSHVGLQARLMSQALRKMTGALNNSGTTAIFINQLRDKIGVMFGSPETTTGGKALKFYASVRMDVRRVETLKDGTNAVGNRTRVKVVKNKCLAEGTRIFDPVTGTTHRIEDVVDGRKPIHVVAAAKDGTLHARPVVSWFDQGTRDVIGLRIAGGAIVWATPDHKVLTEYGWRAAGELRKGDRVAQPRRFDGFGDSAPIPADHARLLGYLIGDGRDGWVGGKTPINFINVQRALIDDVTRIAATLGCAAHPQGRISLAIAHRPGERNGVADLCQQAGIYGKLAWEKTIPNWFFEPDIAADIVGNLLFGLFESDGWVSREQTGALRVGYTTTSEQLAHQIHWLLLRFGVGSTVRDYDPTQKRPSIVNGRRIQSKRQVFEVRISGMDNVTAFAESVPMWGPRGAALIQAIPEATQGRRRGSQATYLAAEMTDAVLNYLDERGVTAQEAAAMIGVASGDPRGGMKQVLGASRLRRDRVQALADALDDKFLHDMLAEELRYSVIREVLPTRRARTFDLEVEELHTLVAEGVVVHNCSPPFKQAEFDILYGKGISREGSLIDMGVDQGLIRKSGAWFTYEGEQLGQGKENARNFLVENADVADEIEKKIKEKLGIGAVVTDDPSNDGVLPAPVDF
YopH inh = YopH (Yersinia) phosphatase inhibition; 140,000 compounds, 0.16% hits; fluorescence Ex485/Em525; AID 898; inhibition, %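 (about 10 µM by stock and volumes)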;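 active = inhibition of 50% or more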;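 note: controls were vehicle for no effect and minimum signal wells for full effect; inactives centre near -20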
Mtb growth = M. tuberculosis H37Rv growth inhibitors, H37Rv strain (AID 1626). M. tuberculosis H37Rv growth inhibition; higher % means a stronger effect. one-dose inhibition, % at 10 µM; IC50 in µM for titrated hits. 220,000 compounds, 0.95% hits;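 active = confirmed in a dose series; inconclusive = inhibition above 80% but not taken into the dose series; inactive = below 80% or under 30% at every dose of the series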;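 note: bacteria incubated seven days before Alamar blue readout; 0% = bacteria only wells and 100% = bacteria with antibiotic wells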
Arbovirus inh = blocks arbovirus infection. arbovirus infection cell-based antiviral screen. inhibition, % at 10 µM. 200,000 compounds, 0.37% hits;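 active = inhibition from about 30%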;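 note: bluetongue infection of BSR cells; cell survival read as ATP light after 72 h; 0% = infected wells without compound and 100% = uninfected wells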
Arbovirus inh repeat = further read-out of Arbovirus inh, marked with its call; inhibition, %; measured here: 10K subset replicate screen; many hits read low in the repeat;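 first of two repeat runs on a subset; 0% = infected and 100% = uninfected wells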
* hit, by the source's call; ? = inconclusive; nt = not tested or not shown; & = joins results of further samples.

SMILES	Mtb bLac sens	RecA intein inh	YopH inh	Mtb growth	Arbovirus inh	others
CCO[C@@H]1OC(C(=O)N2CCN(Cc3ccc4c(c3)OCO4)CC2)=C[C@H](C2CC2)[C@H]1CCCO	-15	-0.1	nt	8%	-5
CCOc1ccc2nc(NCCNC(=S)NCCCN(C)C)c(C#N)cc2c1	3	nt	nt	10%	-28
Cc1oc(-c2ccc(Cl)cc2)nc1CN1CCCC(C(=O)NCc2ccco2)C1 (stereo not given)	7	0.5	17	-7%	-1
O=C(CN1CCNCC1)NCCSc1ccc(Cl)cc1	1	2.9	nt	-1%	3
CCCCN1CCCCC1C(=O)Nc1c(C)cc(C)cc1C (stereo not given)	-7	-1.4	-4	-17%	-3
CCn1cc(C(=O)N2CCN(c3ccccn3)CC2)c(=O)c2cc(S(=O)(=O)N(C)C3CCCCC3)ccc21	-2	0.5	nt	-2%	9
O=C(N/N=C/C(Br)=C/c1ccccc1)c1cc(-c2ccco2)[nH]n1	53	2.5	nt	?	-12
COc1ccccc1NS(=O)(=O)c1ccc(NN=C2CCCC2)c([N+](=O)[O-])c1	0	0.0	-15	3%	14
CC(C)OC(=O)c1nnc(Cc2ccc(Cl)cc2)o1	1	1.2	-35	nt	7	Arbovirus inh repeat=2
NC(=O)CC(NC(=O)c1ccc(Br)cc1)c1ccc(N2CCN(c3ccccn3)CC2)c([N+](=O)[O-])c1 (stereo not given)	1	3.7	nt	10%	nt
CCn1cc(CN2CCC(n3nccc3NC(=O)C3CCCC3)CC2)cn1	-2	-7.7	nt	nt	nt
Cc1noc(/C=C/N(C)C)c1S(=O)(=O)N1CCCC(C(=O)NCc2ccco2)C1 (stereo not given)	3	2.9	-50	-3%	-11	Arbovirus inh repeat=-15
CC1Cc2cc(/C=C3/SC(=S)N(C)C3=O)ccc2O1 (stereo not given)	1	1.0	nt	-8%	nt
N#Cc1cc(-c2ccccc2)oc1/N=C/c1ccccc1O	6	-4.9	4	-3%	-15
COc1ccc(-c2nc(N)nc(C)c2-c2ccc(Cl)cc2)c(O)c1	71	7.5	nt	nt	nt
S=c1[nH]nc(-c2ccccc2Cl)n1CC1CCCO1 (stereo not given)	-2	-3.3	-7	8%	-2
CCOc1ccc(NC(=O)CCN2CCN(c3ccccc3)CC2)cc1	93	-1.5	10	>100µM*	6	Arbovirus inh repeat=-1
CCc1nn(C)c(N)c1C	-12	1.5	nt	-5%	6
C=CCn1c(O)c(C(CC)=Nc2cc(OC)ccc2OC)c(=O)[nH]c1=O	-6	-4.8	-10	-10%	-14
O=[N+]([O-])c1ccccc1OCCNCc1ccccc1	-1	-1.1	nt	nt	nt

The closing 4 entries of the section above come first, to join the parts.
SMILES	Mtb bLac sens	RecA intein inh	YopH inh	Mtb growth	Arbovirus inh	others
CCOc1ccc(NC(=O)CCN2CCN(c3ccccc3)CC2)cc1	93	-1.5	10	>100µM*	6	Arbovirus inh repeat=-1
CCc1nn(C)c(N)c1C	-12	1.5	nt	-5%	6
C=CCn1c(O)c(C(CC)=Nc2cc(OC)ccc2OC)c(=O)[nH]c1=O	-6	-4.8	-10	-10%	-14
O=[N+]([O-])c1ccccc1OCCNCc1ccccc1	-1	-1.1	nt	nt	nt
COC(=O)C1=C(C)NC(C)=C(C(=O)OC)C1c1cc2ccc(C)cc2[nH]c1=O	-6	-3.0	-15	-5%	1
Nc1nnn(CC(=O)N/N=C/c2ccco2)n1	-18	0.3	nt	-5%	nt
CCOC(=O)c1ccc(NC(=O)CSc2nnc(C)n2-c2ccccc2)cc1	-9	0.0	-17	3%	0
COc1ccc(NC(=O)NCCN2CCN(c3cc(OC)ccc3OC)CC2)cc1	-1	-0.1	nt	nt	nt
O=C1CCN(C(=O)Nc2ccccc2)N1	-3	-6.0	-30	-13%	-3
Cc1ccc(-n2ncc3c2CCCC3NC(=O)CCN2CCCC2=O)cc1C (stereo not given)	-5	-3.0	nt	nt	nt
c1ccc(CC2CCN(c3nc4ccccc4n4cnnc34)CC2)cc1	100	0.5	7	1.8µM*	-43
COc1cc(NC(=O)CCCC(=O)OCC(F)(F)C(F)F)nc(OC)n1	45	-1.2	-47	6%	106*	Arbovirus inh repeat=4.1*
Cc1onc(-c2c(Cl)cccc2Cl)c1C(=O)N=S(C)(=O)c1ccccc1 (stereo not given)	1	-1.8	nt	-3%	nt
COc1ccc(CNCC(O)COc2cccc3c2OC(C)(C)C3)cc1 (stereo not given)	-10	2.5	nt	9%	6
CC1CCCCN1S(=O)(=O)c1coc(C(N)=O)c1 (stereo not given)	5	1.1	-12	0%	4	Arbovirus inh repeat=4
CCOc1ccc(/C=C(\C#N)C(=O)c2c(C)[nH]c3ccccc23)cc1OC	-1	3.9	-14	-3%	-1
Cc1nnc(N2CCCC(C(=O)Nc3cc(F)ccc3F)C2)c2nn(-c3ccccc3)c(C)c12 (stereo not given)	28	1.9	nt	nt	nt
CN(C)/C=C(\C#N)S(=O)(=O)c1ccccc1	4	1.1	nt	3%	3
O=C(CNCC1CCCO1)N1CCN(S(=O)(=O)c2ccc3ccccc3c2)CC1 (stereo not given)	-6	-0.6	-13	0%	16
COc1ccc(-c2[nH]ncc2-c2csc(C)n2)c(O)c1	-2	-1.0	-18	-4%	3
O=C(CSc1nc2c(oc3ccccc32)c(=O)n1CC1CCCO1)NCc1ccccc1 (stereo not given)	-6	-0.6	nt	nt	nt
Cc1ccc(OCCn2c(C3CC(=O)N(Cc4ccccc4)C3)nc3ccccc32)cc1 (stereo not given)	0	23	-30	6%	-39
Cc1cccc(C(C)C)c1NC(=O)CSc1nncn1C	nt	0.9	4	-8%	5
Cc1onc(-c2c(F)cccc2Cl)c1C(=O)c1ccccc1O	-7	5.9	nt	-1%	nt
CCOc1cc(NC(=O)c2ccco2)c(OCC)cc1NC(=O)CCc1ccccc1OC	6	0.5	7	15%	1
COc1ccc([N+](=O)[O-])cc1NC(=O)COC(=O)c1ccccn1	-5	-1.1	nt	-4%	0
CCc1cccc(CC)c1-n1c(SCc2cc(=O)n3ccsc3n2)nnc1-c1cccnc1	1	0.4	-29	-3%	8
Cc1ccc(S(=O)(=O)Cc2ccc(C(=O)N3CCN(c4ccccn4)CC3)o2)cc1	-7	-0.1	-16	-9%	-6	Arbovirus inh repeat=-2
CCNc1nc(NCC)n2c(SCC(=O)c3ccc(C(C)C)cc3)nnc2n1	8	0.4	-16	5%	12
Cc1ccsc1C(=O)N(c1nc2ccccc2s1)c1c(C)cccc1C	7	-0.2	15	-2%	-1
Cc1ccc(C)c(OCCC(=O)NNC(=O)c2ccncc2)c1	1	-0.3	nt	nt	nt
Cc1c(C(C)C)c(=O)n(-c2ccc(S(=O)(=O)NCc3ccccc3)cc2)n1C	3	-3.6	nt	3%	6
NCCc1nnc(SCC(N)=O)o1	-7	-0.1	-23	2%	13
O=Nc1c2nc3ccccc3n(O)c-2c2ccccc12	92	4.3	-40	7%	-25
Cc1ccc(S(=O)(=O)Nc2cc(C(=O)O)ccc2N2CCCCC2)cc1	?	0.9	-25	4%	-15
CCn1c(SCC(=O)N/N=C/c2cc(OC)c(OC)c(OC)c2)nc2ccccc21	12	-2.6	-16	3%	2
Cc1cccc(OCc2nnc(SCC(=O)N3c4ccccc4Sc4ccc(Cl)cc43)o2)c1	-2	5.8	4	12%	6
O=C(NNS(=O)(=O)c1ccc(F)cc1)c1ccccc1F	8	-3.4	nt	nt	nt
CC1Cc2ccccc2N1C(=O)c1ccc2snnc2c1 (stereo not given)	6	nt	-42	-7%	-4	Arbovirus inh repeat=0
CCc1ccccc1NC(=O)CNC(=O)c1cccc(S(=O)(=O)N2CCN(Cc3ccccc3)CC2)c1	-3	1.5	nt	nt	nt
C=CCn1c(-c2ccncc2)n[nH]c1=S	0	2.4	nt	3%	-1
O=C(c1ccc2c(c1)OCO2)N(CC1CCCO1)C1(C(=O)NC2CCCCC2)CCCCC1 (stereo not given)	3	1.1	-6	-3%	-13
CCOc1ccc(C(=O)Nc2cccc(-c3cc4ccccc4oc3=O)c2)cc1[N+](=O)[O-]	3	4.2	-27	-3%	-18
O=C(CN1CCOCC1)NCCNC(=O)CN1CCOCC1	-1	0.4	-2	0%	10
COc1cc(OC)cc(C(=O)Nc2ccc3nc4n(c(=O)c3c2)CCCC4)c1	12	0.1	nt	nt	nt
CN(C)C(=O)N1CCN(C(=O)N(C)C)CC1	-2	-1.3	-39	-6%	1
O=C1N=c2ccc(Br)cc2=C1c1sc(=O)[nH]c1O	12	15	nt	nt	nt
CCOC(=O)CSc1ncnc2c1cnn2-c1ccccc1	99	-2.1	-40	1.4µM*	0
CC1CCCC(C)N1C(=O)Cn1c(SCC(=O)Nc2ccc3c(c2)OCO3)nc2ccccc21 (stereo not given)	-2	1.0	-25	0%	-4
O=C(NCC1CCCO1)c1ccc2c(=O)n(CC3CCCO3)c(SCC(=O)N3CCCC3)nc2c1 (stereo not given)	-8	2.3	nt	-5%	7
CCOC(=O)N1CCN(C(=O)CN(C2CCCCC2)S(=O)(=O)c2ccc(Cl)cc2)CC1	-5	0.0	-15	7%	4
CCS(=O)(=O)c1ccc(O)c(NC(=O)COc2ccc(OC)cc2)c1	-3	-1.8	-34	-1%	9
N#CC(C#N)=Cc1ccc(OCC(=O)N2CCOCC2)cc1	13	4.2	nt	nt	5
CC1CCN(S(=O)(=O)c2ccc3c(c2)n(C)c(=O)n3C)CC1	3	-6.7	nt	nt	nt
COC(=O)C1=C(C)NC(=O)/C1=C\c1cc(C)n(-c2cccc(C)c2)c1C	98	-2.5	-3	35%	-3
COc1ccc(CN2CCN(C(C)C)C(CCO)C2)cc1Cn1cccn1 (stereo not given)	-1	1.5	nt	6%	4
Cc1cccc(NC(=O)C2c3ccccc3C(=O)N3CCc4ccccc4C23)n1 (stereo not given)	-2	2.7	-6	8%	-2
CCOC(=O)CN1C(=O)C(O)=C(C(C)=O)C1c1ccc([N+](=O)[O-])cc1 (stereo not given)	16	-1.0	-2	2%	6
Cc1cc(=O)c2ccccc2s1	1	1.2	-7	-1%	-5
CC1=C(C(=O)Nc2cccc(C(=O)NC3CCCC(C)C3C)c2)SCCO1 (stereo not given)	3	5.4	nt	nt	nt
O=C(O)C1CCCN1c1ncccc1[N+](=O)[O-] (stereo not given)	0	-1.7	nt	-1%	2
Clc1ncccc1-c1nc2ccccc2n1Cc1ccccc1	-5	-1.6	-35	0%	2
COc1ccccc1N1CCN(C(=O)CN2C(=O)c3ccccc3C2=O)CC1	4	-2.8	nt	5%	2
O=C(CCc1nnc(-c2ccsc2)o1)NCc1ccccc1OC(F)(F)F	14	10.0	nt	-6%	3

Reprinted from the part before: 2 entries, followed by the next part.
SMILES	Mtb bLac sens	RecA intein inh	YopH inh	Mtb growth	Arbovirus inh	others
COc1ccccc1N1CCN(C(=O)CN2C(=O)c3ccccc3C2=O)CC1	4	-2.8	nt	5%	2
O=C(CCc1nnc(-c2ccsc2)o1)NCc1ccccc1OC(F)(F)F	14	10.0	nt	-6%	3
CCOC(=O)CN(C(=O)CSc1nnc(CNc2ccc(C)cc2C)n1CC)c1ccccc1	-3	-1.7	-46	nt	0
Cc1cc(NC2CCCCC2)nc(NCc2ccccc2)n1	98	17	-18	10µM*	-31
CN(C)S(=O)(=O)c1ccc(NC(=O)Cn2ccsc2=N)cc1	-4	1.9	nt	2%	-2
CC(=O)c1ccc(Oc2ncnc(N)c2[N+](=O)[O-])cc1	11	-2.7	nt	nt	nt
CCOc1nc(NC(=O)NS(=O)(=O)c2cccc(Cl)c2)nc(-c2ccccc2)n1	-3	1.4	-13	-4%	-1
COc1ccc(NS(=O)(=O)c2ccc3nc(COc4cccc5ccccc45)[nH]c3c2)cc1	97	18	-23	9.8µM*	-19
O=C1NCC(O)=C1C=NC12CC3CC(CC(C3)C1)C2	3&-1	0.9&0.1	-29&6	2%&-9%	-1&-2
COc1ccc(C2CCCN2CC(O)COc2ccccc2C(C)C)cc1 (stereo not given)	28	1.6	nt	nt	nt
CCc1ccc(/C=C2/C(=O)N(C)C(=S)N2CC(=O)OC)s1	99	4.7	nt	?	-1
O=C(Nc1ccc(S(=O)(=O)N2CCOCC2)cc1)c1cc([N+](=O)[O-])ccc1Cl	3	3.5	nt	nt	nt
O=C(CCN1C(=O)c2cccc3cccc(c23)C1=O)Nc1ccon1	-3	0.4	nt	3%	-5
COc1ccc(CNC(=O)C(=O)NCCCn2ccnc2)cc1	5	-5.8	nt	-5%	8
Cc1cc(C)nc(SCCN2CCOCC2)n1	-9	-1.0	-34	-9%	-2
Cn1c(=O)c2c(nc(Oc3ccccc3)n2C)n(C)c1=O	-10	0.5	-68	-6%	10

Only part of the results is shown, so the mix of outcomes need not match the whole.
